StopGo FLuc – Primary qHTS Assay for Foot and Mouth Disease Virus Antivirals against NCGC Sytravon and CBC Compound Libraries: Firefly Luciferase Signal. Potency, µM (highest dose often 57.5 µM), for inactives: at the top dose signal change, negative = less light. HEK cells with a luciferase reporter of 2A StopGo recoding. 120,000 tested, 0.23% active; active = well fitted falling curve with a large enough effect; inconclusive = small, poorly fitted or top-dose-only effect; inactive = no such curve, though single readings can be large or run the other way; further: nearly all actives have a fitted effect of over 60% in size; overnight with compound
2A Renilla – Primary qHTS Assay for Foot and Mouth Disease Virus Antivirals against NCGC Sytravon and CBC Compound Libraries: Renilla Luciferase Signal | HEK cells with a luciferase reporter of 2A StopGo recoding | Potency, µM (top dose mostly 57.5 µM), for the others: top-dose signal change, negative = less light | 120,000 tested, 0.32% active | AID 1745857, 2022; active means well fitted falling curve with a large enough effect; inconclusive means small, poorly fitted or top-dose-only effect; inactive means no such curve, though single readings can be large or run the other way; further: nearly all actives have a fitted effect of over 55% in size; overnight with compound
An asterisk follows results filed as active; u = inconclusive; [ ] = dose if it differs, or a comment. On the % scale 0 is the no-effect control and ±100 the full control effect; potency means the concentration at half of the fitted maximal effect.

SMILES	StopGo FLuc	2A Renilla
Cc1nn(CC(=O)Nc2ccc(C(C)C)cc2)c(=O)c2cccn12	-1%	-8%
Cc1sc2nc(CSc3nnnn3C3CCCCC3)[nH]c(=O)c2c1C	143%[activator]	12%
Cc1ccc(-c2nc3ccccc3s2)cc1S(=O)(=O)N1CCOCC1	98%[activator]	17%
CC(=O)Nc1c(-c2ccccc2)c(C)nn1-c1ccc(C(=O)N2CCN(C)CC2)cc1	5%	-4%
Cc1nc2cc(NC(C)C(=O)Nc3ccccc3C(C)C)ccc2o1 (stereo not given)	13%	16%
N#Cc1ccccc1N=Cc1cccc(Cl)c1	12%	-5%
Clc1ccc2c(c1)-n1cc(-c3ccccc3)nc1CO2	257%[activator]	17%
O=S(=O)(F)CCS(=O)(=O)c1ccc(Cl)cc1	7%	-3%[1.06 µM]
N#Cc1ccc(NC(=O)CN2CCCCCC2)cc1Cl	-4%	12%
O=C(c1cncn1-c1ccc(F)cc1)N1CCN(S(=O)(=O)c2cc(Cl)ccc2Cl)CC1	-12%	-10%
Cc1ccc2[nH]c(CSc3nnc(C)s3)cc(=O)c2c1	27%	8%
COCCCN(C(=O)c1cc(Cl)nc2ccccc12)c1c(N)n(Cc2ccccc2)c(=O)[nH]c1=O	-8%	-7%
COc1ccc(C2CC(=O)Nc3c(C(=O)O)cn(-c4ccccc4Cl)c32)c(OC)c1OC (stereo not given)	42%[activator]	44%[activator]
COc1ccc2c(CN3CCN(C(=O)C4COc5ccccc5O4)CC3)cc(=O)oc2c1 (stereo not given)	-5%	-11%
Cn1c(=O)[nH]c(=O)c2c1nc(NCCN1CCOCC1)n2Cc1ccc(F)cc1	14%	8%
CCOc1ccccc1CNC(=O)C1CCN(C2=NS(=O)(=O)C(c3ccc(C)c(C)c3)=C2C)CC1	-14%	-6%
COc1ccc2c(c1)CCc1sc(NC(=O)c3ccc(Br)cc3)nc1-2	-24%	u
Cc1ccccc1NC(=O)[C@H](CSCc1ccccc1)N1Cc2ccccc2C1=O	2%	143%[activator]
CCOc1ccc(NC(=O)Cn2c(CCC(=O)O)ccc2-c2ccc(C)cc2)cc1	-9%	-4%
COc1ccc(Nc2ccccc2NC(=O)c2cccc(F)c2)cc1	30%[activator]	41%[activator]
COc1cccc(C2C(C(=O)Nc3ccc(C)cc3C)=C(C)Nc3c(C(=O)Nc4ccccc4)cnn32)c1 (stereo not given)	-8%	-8%
CSc1ccc(/C=N/Nc2ccc(Cl)c(Cl)c2)cc1	203%[activator]	14%
COc1ccc(Cn2c(CO)cnc2SCc2ccc(F)cc2)cc1	70%[activator]	u
Cc1cc(C)cc(-n2c(SCC(=O)N3CCCCCC3)nc3c([nH]c4ccccc43)c2=O)c1	-6%	0%
CCc1ccc(NC(=O)c2cc3ncccn3n2)cc1	135%[activator]	-10%
Following part.
SMILES	StopGo FLuc	2A Renilla
CSc1cccc(Nc2cc(C)nc3ncnn23)c1	0%	5%
ClC(C[n+]1ccccc1)C[n+]1ccccc1	20%	9%
O=C(COC(=O)C12CC3CC(CC(C3)C1)C2)Nc1ccc2c(c1)OCO2	3%	-6%
Cc1ccc(-c2cc3ccccc3[nH]2)cc1	221%[activator]	2%
Cc1ccc(C(=O)Nc2cc3nn(-c4ccccc4)nc3cc2Cl)c(C)c1	14%	1%
N#Cc1ccc(-c2cccs2)nc1SCc1c(F)cccc1Cl	24%	43%[activator]
O=C(CN1CCC(c2nc3ccccc3s2)CC1)C12CC3CC(CC(C3)C1)C2	31%[activator]	-6%
O=C(O)Cn1cc(C(C(=O)O)N2CCN(CC(=O)N3CCCC3)CC2)c2ccc(F)cc21 (stereo not given)	-18%	-16%
CC(=O)c1cc(C(C)(C)C)cc(C(C)(C)C)c1	1%	8%
CC1(C)CC(NC(=S)NCCc2ccccc2)CC(C)(C)N1	-1%	-7%
Cc1nc(C)c(CC(=O)Nc2nnc(C3CCCCC3)s2)c(=O)[nH]1	8%	9%
CCCN(C(=O)Cn1ncc2c1-c1ccccc1OC2)c1cccc(C)c1	6%	-16%
Clc1sc(C=Nc2cccc3ccccc23)c(Cl)c1Cl	47%	20%
COc1ccccc1NC(=O)CSCc1cc(=O)c2c(C)cc(C)cc2[nH]1	22%	15%
Cc1ccc(C)c(NC(=O)C2CCCN(c3ncnc4onc(C)c34)C2)c1 (stereo not given)	-7%	-16%
Nc1c(N(Cc2ccccc2)C(=O)C2=COCCO2)c(=O)[nH]c(=O)n1Cc1ccccc1	-1%	-7%
CCOC(=O)Nc1ccc(NS(=O)(=O)c2ccc(F)cc2C)cc1	1%	260%[activator]
CC1C(=O)N2CCCc3cc(S(=O)(=O)Nc4ccc(Br)cc4F)cc1c32 (stereo not given)	-12%	0%
CC(=O)NCc1ccc(C(=O)CCl)o1	-5%	-7%
Cc1cc2oc(C(=O)N(Cc3ccc(F)cc3)C3CCS(=O)(=O)C3)cc(=O)c2cc1C (stereo not given)	-2%	-1%
CC1CCN(C(=O)c2cc3ccc(C(C)C)cc3[nH]2)CC1	178%[activator]	91%[activator]
COc1ccccc1N1CCN(Cc2cc(COC(C)C)c3cccnc3c2O)CC1	-15%	-28%
O=C(NCCc1ccc(Cl)cc1)c1cnc2sc(N3CCCC3)nn2c1=O	-11%	-11%
CCn1nc(C)c(CCNC(=O)Nc2ccc(OC)cc2OC)c1C	6%	2%
Cc1ccc2cc(C(=O)NC3CCS(=O)(=O)C3)[nH]c2c1 (stereo not given)	0%	3%
(cont.)
SMILES	StopGo FLuc	2A Renilla
Cc1ccc(C)c(Sc2ccc(NC(=O)/C=C/c3cccs3)cc2)c1	u	-8%[1.06 µM]
CCOc1ccc(Cl)cc1/C=C(\C#N)c1nc2cc(C)c(C)cc2[nH]1	22%	-3%
Cc1nn(-c2ccccc2)c(C)c1CN(C)C(=O)CCNC(=O)c1ccc(Cl)cc1	u	u
Cc1cc(CS(=O)(=O)Cc2cccc(Cl)c2)no1	3%	-1%
O=C(COC(=O)c1c(Cl)cccc1Cl)NCc1ccc2c(c1)OCO2	12%	117%[activator]
CN(C)C(=O)c1ccc(OCc2coc(-c3cccc(F)c3)n2)cc1	9%	-29%
CC(Sc1nnc(-c2ccco2)n1C)C(=O)N1CCc2ccccc2C1 (stereo not given)	-6%	-14%
CCCc1c(C)nc2ncnn2c1Nc1cc(C)cc(C)c1	4%	9%
CCC(CO)NC(=O)C(=O)Nc1c2c(nn1-c1ccc(F)cc1)CSC2 (stereo not given)	-26%	-19%
Cc1ccc(CN(C(=O)COc2ccc(C(C)(C)C)cc2)C2CCS(=O)(=O)C2)o1 (stereo not given)	16%	-11%
CCn1nc(C(=O)OCC(=O)Nc2ncc(Cl)c(C)c2Cl)c2ccccc2c1=O	u	-11%
Cc1ccc(-n2c(=O)c3c(cnn3C)n(CC(=O)Nc3ccccc3C)c2=O)cc1	-15%	-3%
C[C@H](NC(=O)C1CC(=O)N(c2ccc(F)cc2)C1)C(=O)NCCc1c[nH]c2ccccc12 (stereo not given in full)	24%	27%
COc1ccc2c(c1)c(C(C(=O)O)N1CCN(Cc3ccccc3)CC1)cn2CCC(=O)O (stereo not given)	11%	-3%
CCOc1ccc(NC(=O)Cn2nnc3sc4c(c3c2=O)CC(C)(CC)OC4)cc1 (stereo not given)	-17%	-16%
Cc1ccc(C)c(NC(=O)C(Sc2ccc(S(=O)(=O)N3CCOCC3)cn2)c2ccccc2)c1 (stereo not given)	-7%	178%[activator]
CCc1cccc(NC(=O)C2CCN(S(=O)(=O)c3cccc(-c4noc(C)n4)c3)CC2)c1	u	u
O=C(O)CSCc1ccsc1	-4%	3%
CCN1CCN(C(=O)c2cc(-c3ccc(OC)cc3)nc3ccccc23)CC1	148%[activator]	59%[activator]
O=C(CN1CCN(C(=O)c2ccc(OCC(F)(F)F)nc2)CC1)Nc1ccccc1Cl	1%	8%
COCCn1c(SCC(C#N)CCC#N)nnc1-c1ccc(Cl)cc1 (stereo not given)	7%	5%
CCCCN1C(=O)C2(CC(=O)Nc3c2cnn3-c2ccc(C)c(C)c2)c2ccccc21 (stereo not given)	-12%	-15%
CCOc1ccc(NC(=O)CCn2c(=O)c3cccn3c3cccnc32)cc1	1%	2%
COc1cccc(C(=O)Nc2ccc3oc(-c4ccccc4)cc(=O)c3c2)c1	128%[activator]	-2%
Cc1ccc(-c2noc(-c3ccccc3OCC(=O)Nc3ccccc3[N+](=O)[O-])n2)cc1	0%	1%
Other structures follow.
SMILES	StopGo FLuc	2A Renilla
O=C(Cc1cccc2cccnc12)NCc1ccccc1	0%	-1%
Cc1cccc(NC(=O)c2oc3ccccc3c2NC(=O)Cc2coc3ccc(C(C)C)cc23)c1	107%[activator]	-6%
COc1cc2c(cc1OC)C(COc1ccc(C(C)C)cc1)N(C(=O)c1ccc(S(=O)(=O)N3CCCC3)cc1)CC2 (stereo not given)	-23%	-9%
CCNC(=O)C1CCN(c2nc3ccccc3nc2C(F)(F)F)CC1	-9%	-2%
COc1ccc(CCNC(=O)Cn2cc(S(=O)(=O)Cc3ccccc3F)c3ccccc32)cc1OC	8%	0%
COC(=O)c1c(-c2cccs2)csc1NC(=O)c1ccc(OC)c(OC)c1	3%	-4%
CCOC(=O)c1ccc(NC(=O)CSc2nccn2-c2cc(C)cc(C)c2)cc1	-29%	-14%
COc1ccc(OC)c(CNC(=O)c2ccc(Sc3ccc(Cl)cc3)c(NC(C)=O)c2)c1	-10%	-8%
COc1ccc(-c2nc(CSCC(=O)NC3CCC(C)CC3)co2)cc1 (stereo not given)	-17%	u
O=C(CN1CCCCC1)Nc1oc2ccccc2c(=O)c1-c1ccc(Cl)cc1	17%	-12%
COc1ccc(CNC(=O)c2cc(=O)[nH]c3ccc(S(=O)(=O)N4CCCC4)cc23)c(OC)c1	-17%	-11%
Cc1ccc(S(=O)(=O)CC(=O)Nc2cc(C(C)(C)C)no2)cc1	0%	25%
Cc1ccc(NC(=O)Cn2c(CCC(=O)O)ccc2-c2ccc(Cl)cc2)cc1	-18%	-8%
COc1ccccc1NC(=O)Cn1cnc2ccc(S(=O)(=O)N3CCC(C)CC3)cc2c1=O	-15%	-7%
NC(=O)NC(=O)CSc1nnc(-c2ccccc2)c(-c2ccccc2)n1	-1%	4%
CN(C)c1ccc(CN(CC2CCCO2)C(=O)c2ccc(Br)cc2)cc1 (stereo not given)	-9%	0%
CCn1nc(C)c2c(-c3ccccc3)cc(=O)n(C(C)C(=O)NCc3cccc(OC)c3)c21 (stereo not given)	u	u
CC(=O)NNC(=S)NC1CC2CCC1C2 (stereo not given)	20%	-9%[1.06 µM]
Cc1ccc(C2C(=O)N(C3CCCCCC3)CC(=O)N2CCC2=CCCCC2)cc1 (stereo not given)	-7%	-6%
C/C(=N/N=C(c1ccccc1)c1ccccc1)c1ccncc1	0%	1%
Cc1ccc(C(=O)NC(CC(=O)O)c2cccs2)o1 (stereo not given)	14%	4%
Cc1cccc(NC(NC(=O)C(C)C)(C(F)(F)F)C(F)(F)F)c1	18%	9%
O=C(c1cc(=O)c2ccccc2o1)N(Cc1cccs1)C1CCS(=O)(=O)C1 (stereo not given)	5%	0%
Cn1c(NC2CCCC2)nc2c1c(=O)n(Cc1ccc(Cl)cc1)c(=O)n2C	u	u
N#C/C(=C/c1ccc(C#N)cc1)C(=O)Nc1ccc(N2CCOCC2)cc1	4%	5%

Reprinted from the part before: 4 entries; new compounds follow.
SMILES	StopGo FLuc	2A Renilla
Cc1cccc(NC(NC(=O)C(C)C)(C(F)(F)F)C(F)(F)F)c1	18%	9%
O=C(c1cc(=O)c2ccccc2o1)N(Cc1cccs1)C1CCS(=O)(=O)C1 (stereo not given)	5%	0%
Cn1c(NC2CCCC2)nc2c1c(=O)n(Cc1ccc(Cl)cc1)c(=O)n2C	u	u
N#C/C(=C/c1ccc(C#N)cc1)C(=O)Nc1ccc(N2CCOCC2)cc1	4%	5%
O=C(Nc1ccc(F)c(F)c1)C1CCCN(S(=O)(=O)c2cccc3nonc23)C1 (stereo not given)	-21%	-5%
CCOc1ccc(NC(=O)Cn2c(C)ccc(C#N)c2=O)cc1	-6%	-11%
O=C(N/N=C/c1cccs1)c1ccncc1	0%	-10%
Cc1cccc(NC(=O)C2CCC(CNS(=O)(=O)c3csc(C(N)=O)c3)CC2)c1C (stereo not given)	4%	-1%
Fc1ccc(C2NCc3ccccc3-n3cccc32)cc1 (stereo not given)	-20%	u
CCOC(=O)C1CCCN(C(=O)c2ccc3c(c2)N(Cc2ccc(Cl)cc2)C(=O)c2ccccc2S3=O)C1 (stereo not given)	14%	102%[activator]

Molecules from the list above that contain a thiophene ring, fused or not:
SMILES	StopGo FLuc	2A Renilla
Cc1sc2nc(CSc3nnnn3C3CCCCC3)[nH]c(=O)c2c1C	143%[activator]	12%
N#Cc1ccc(-c2cccs2)nc1SCc1c(F)cccc1Cl	24%	43%[activator]
Clc1sc(C=Nc2cccc3ccccc23)c(Cl)c1Cl	47%	20%
Cc1ccc(C)c(Sc2ccc(NC(=O)/C=C/c3cccs3)cc2)c1	u	-8%[1.06 µM]
CCOc1ccc(NC(=O)Cn2nnc3sc4c(c3c2=O)CC(C)(CC)OC4)cc1 (stereo not given)	-17%	-16%
O=C(O)CSCc1ccsc1	-4%	3%
COC(=O)c1c(-c2cccs2)csc1NC(=O)c1ccc(OC)c(OC)c1	3%	-4%
Cc1ccc(C(=O)NC(CC(=O)O)c2cccs2)o1 (stereo not given)	14%	4%
O=C(c1cc(=O)c2ccccc2o1)N(Cc1cccs1)C1CCS(=O)(=O)C1 (stereo not given)	5%	0%
O=C(N/N=C/c1cccs1)c1ccncc1	0%	-10%
Cc1cccc(NC(=O)C2CCC(CNS(=O)(=O)c3csc(C(N)=O)c3)CC2)c1C (stereo not given)	4%	-1%

Assay outcomes from PubChem.
